TRPV1 PAM – HTS Assay for Compounds that Act as Potentiators of the Vanilloid Receptor 1 | Transient receptor potential cation channel subfamily V member 1 (Homo sapiens), Q8NER1 | TRPV1-expressing cells, Fluo-8 calcium influx, capsaicin EC20 potentiation; host cell line not named in the record; control for the full effect not named in the record | potentiation, % at 8.33 µM | actives 0.02% (n = 320,000) | AID 540277, 2011; active means potentiation above 80%; inconclusive means 30% to 80%; inactive means below 30%; also: 0% is about no effect
Target sequence (Q8NER1 whole entry, looked up): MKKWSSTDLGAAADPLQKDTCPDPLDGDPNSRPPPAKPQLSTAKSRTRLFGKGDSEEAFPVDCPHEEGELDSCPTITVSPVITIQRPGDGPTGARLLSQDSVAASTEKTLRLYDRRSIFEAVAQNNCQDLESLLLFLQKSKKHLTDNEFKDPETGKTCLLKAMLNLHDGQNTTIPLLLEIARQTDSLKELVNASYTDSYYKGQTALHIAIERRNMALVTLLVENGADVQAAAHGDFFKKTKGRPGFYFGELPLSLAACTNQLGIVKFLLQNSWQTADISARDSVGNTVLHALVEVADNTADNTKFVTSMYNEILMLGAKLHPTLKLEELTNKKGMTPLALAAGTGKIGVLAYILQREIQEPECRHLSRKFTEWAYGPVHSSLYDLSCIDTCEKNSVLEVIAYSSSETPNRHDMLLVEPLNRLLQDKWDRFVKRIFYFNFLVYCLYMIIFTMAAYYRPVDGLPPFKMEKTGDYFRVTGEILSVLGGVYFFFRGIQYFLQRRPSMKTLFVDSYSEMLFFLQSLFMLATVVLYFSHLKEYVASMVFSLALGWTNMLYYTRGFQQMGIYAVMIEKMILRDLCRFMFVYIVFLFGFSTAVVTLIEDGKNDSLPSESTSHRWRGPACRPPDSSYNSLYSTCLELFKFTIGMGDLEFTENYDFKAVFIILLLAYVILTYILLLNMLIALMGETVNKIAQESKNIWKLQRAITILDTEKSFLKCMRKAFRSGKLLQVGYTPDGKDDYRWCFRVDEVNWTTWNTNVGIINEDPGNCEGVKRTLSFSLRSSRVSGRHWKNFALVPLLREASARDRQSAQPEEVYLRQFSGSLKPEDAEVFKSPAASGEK
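Cells expressing TRPV1 were dye-loaded with Fluo-8 and read kinetically: 10 s baseline, 3 min after compound (agonist portion), then 2 min after EC20 capsaicin (allosteric enhancer portion). Calcium-bound dye fluorescence at 480/520 nm.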
gsp antagonist – qHTS for Antagonists of gsp, the Etiologic Mutation Responsible for Fibrous Dysplasia/McCune-Albright Syndrome: qHTS. Potency, µM (series often up to 76.9 µM), inactives show at the highest dose activity change, negative = inhibition, most hits filed as inhibitors. actives 0.4% (n = 340,000). AID 624288, 2012. gsp-mutant cells, cAMP HTRF, 30 min; control for the full effect not named in the record; active = falling curve of any shape with a large fitted effect; inconclusive = falling curve, mostly with a smaller effect; inactive = flat or rising curve; cell line not stated here;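 also: intracellular cAMP measured with PDE inhibitor Ro 20-1724 present during compound exposure; potency is read from the fitted curve at half-maximal effect; % is scaled to controls: 0 for no effect and ±100 for the full control effect; nearly all actives have a fitted effect of over 65% in size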
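Cells in G418 medium, seeded 16-24 h, 37C; buffer exchange to DPBS + 1 mM CaCl2, 0.5 mM MgCl2, 0.05% BSA; cpds in DMSO + […] (300 uM stock), 30 min 37C; HTRF cAMP detection.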
CtBP-E1A blk – qHTS Assay for Inhibitors of the CtBP/E1A Interaction; activity change, % (no concentration beside the values); CtBP / adenovirus E1A interaction (AlphaScreen); AlphaScreen GST-E1A/His-CtBP binding, 1536-well; hits give low values; control for the full effect not named in the record; actives 0.49% (n = 340,000); AID 651724, 2012; in the data active means activity change below about -65%; inconclusive means about -30% to -65%; inactive means above about -30%; also: % is scaled to controls: 0 for no effect and ±100 for the full control effect; compound concentration not given in the record
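Steps: dispense buffer (Tris pH 8.0, NaCl 300 mM, TCEP 1 mM, BSA, Tween 20); add 5X protein mix (GST-E1A, His-CtBP, 125 nM each); pin 23 nL compound; 2 h at 37 °C, dark; add 5X beads (50 ug/mL); 1 h; read.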
Sfp PPTase inh – qHTS Assay for Inhibitors of Bacillus subtilis Sfp phosphopantetheinyl transferase (PPTase) | 4'-phosphopantetheinyl transferase ffp (Bacillus subtilis), Q9F4F7 | Biochemical Sfp PPTase activity, qHTS | Potency, µM, inactives show max response, negative = inhibition, usual class: inhibitors | actives 3.5% (n = 310,000); active = well fitted inhibition curve with a large enough effect; inconclusive = small, poorly fitted or top-dose-only effect, or another doubt; inactive = no such curve, though single readings can be large or run the other way;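 also: the enzyme is Sfp with the accession as filed and its product quenches rhodamine fluorescence; potency is read from the fitted curve at half-maximal effect; 0% = enzyme reaction without inhibitor and -100% = no enzyme wells; top concentration of the series not given in the record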
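Buffer: 50 mM Hepes-Na pH 7.6, 10 mM MgCl2, 0.01% Nonidet P-40, 0.01% BSA. Enzyme 15 nM, pre-exposed to compound 15 min; substrates then added and fluorescence change tracked over 30 min.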
Menin MLL FP FL – qHTS Assay for Inhibitors Targeting the Menin-MLL Interaction in MLL Related Leukemias: Competition With Fluorescein Labeled MLL-derived Peptide. Fluorescence polarization, fluorescein-MLL peptide displacement from menin. FP activity change, % at 61.4 µM. 290,000 tested, under 10 active. AID 1766, 2009; inconclusive = falling polarisation curve, or a change in total fluorescence; inactive = total fluorescence flat and polarisation flat or rising; no compound was filed as active; the % refers to the polarisation; negative = inhibition;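 also: % of control where 0% means no effect; inhibitors lower the polarisation; unlabelled MLL peptide was the positive control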
gsp agonist – qHTS for Agonist of gsp, the Etiologic Mutation Responsible for Fibrous Dysplasia/McCune-Albright Syndrome: qHTS; gsp mutant cells, cAMP HTRF, 30 min; control for the full effect not named in the record; actives 0.13% (n = 340,000); Potency, µM (series often up to 76.9 µM), without a hit: at the highest dose activation (cAMP increase), hits mostly activators; active = well fitted activation curve with a large enough effect; inconclusive = small, poorly fitted or top-dose-only effect, or another doubt; inactive = no such curve, though single readings can be large or run the other way; cell line not stated here;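 also: phosphodiesterase inhibitor Ro 20-1724 added with compounds to block cAMP breakdown; potency is read from the fitted curve at half-maximal effect; nearly all actives have a fitted effect of over 60% in size; about a fifth of the inactives were tested at one dose only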
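Cells stably selected in G418 were plated at 2000/well, grown 16-24 hr, then given compounds in DMSO with the PDE inhibitor […] (300 uM solution added) for 30 min at 37C; cAMP was read by HTRF.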
ClpP mod – qHTS Assay for Activators of ClpP. actives 1.9% (n = 340,000). Potency, µM (highest dose often 57.5 µM), for inactives: at the top dose activity change, negative = active. ATP-dependent Clp protease proteolytic subunit (Bacillus subtilis (strain 168)), P80244. purified B. subtilis ClpP, FRET peptide cleavage, 20 min. AID 651965, 2013; active = well fitted falling curve with a large enough effect; inconclusive = small, poorly fitted or top-dose-only effect; inactive = no such curve, though single readings can be large or run the other way; also: potency is read from the fitted curve at half-maximal effect; the source files actives as falling curves though it sought activators and does not explain the sign; nearly all actives have a fitted effect of over 65% in size; many hits overshoot -100%
Target sequence (P80244 whole entry, looked up): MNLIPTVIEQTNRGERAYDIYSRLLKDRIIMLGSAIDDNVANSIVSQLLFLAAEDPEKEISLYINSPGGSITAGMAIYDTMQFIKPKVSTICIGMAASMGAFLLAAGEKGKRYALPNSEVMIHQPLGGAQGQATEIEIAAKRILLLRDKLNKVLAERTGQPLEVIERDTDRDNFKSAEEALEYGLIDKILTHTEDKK
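Buffer: 100 mM Tris/HCl pH8, 100 mM KCl, 0.05% low protease BSA, 2.5% glycerol, 0.01% Tween-20. ClpP 10 microg/mL final; 20 min RT; delta FRET normalized to ADEP and DMSO controls.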
* = called active by the depositor; ? = inconclusive; nt = not tested or not shown; & = joins results of further samples; [ ] = dose if it differs, or a comment. This is a random part of the collection (roughly 5.3% active in at least one column).

SMILES	TRPV1 PAM	gsp antagonist	CtBP-E1A blk	Sfp PPTase inh	Menin MLL FP FL	gsp agonist	ClpP mod
CN(CC(=O)Nc1ccc2c(c1)OCO2)S(=O)(=O)c1ccc2c(c1)CCC(=O)N2	-13	7%	-15	3%	3.0	-17%[15.4 µM]	nt
CC1CN(C(=O)C(C)N2CCN(c3ccccc3Cl)CC2)CC(C)O1 (configuration not stated)	5	13%	4	22%	-3.0	-5%[15.4 µM]	-0.4%
O=C(CCSc1ccccc1)N1CCN(c2ccccc2F)CC1	-10	-10%	-14	-19%	3.5	-2%	nt
O=C(c1ccccc1)c1ccc(N2CCNCC2)cc1	-17	nt	nt	3%	0.9	nt	nt
CC(NC(=O)Cn1cccc1)c1ccccc1 (configuration not stated)	?	6%	-3	2%	-2.4	-37%[inhibitor]	nt
CC1(C)CC(=O)C(C(c2cccc([N+](=O)[O-])c2)C2C(=O)CC(C)(C)CC2=O)C(=O)C1	0	-26%	18	-9%	0.5	1%	3.2%
COc1ccc(NC(=O)CSCC(=O)Nc2nnc(CC(C)C)s2)cc1	-3	-11%	-17	nt	nt	-62%[15.4 µM]	nt
O=C1CN(C(=O)CSc2nc3ccccc3c(=O)n2CCCN2CCOCC2)c2ccccc2N1	nt	8%	-20	9%	-1.1	?	-0.9%
N#Cc1ccc(S(=O)(=O)NC2CC2)cc1	-2	4%	29	?	-14	-1%[15.4 µM]	nt
CCOC(=O)C1CCCN(C(=O)c2sc3nc(-c4ccccc4)cn3c2C)C1 (configuration not stated)	1	-12%	3	12%	0.8	5%	-0.4%
C/C(=N\NC(=O)c1ccco1)c1cc(Cl)sc1Cl	-9	-13%	3	19%	nt	-26%	-0.4%
O=C(NC(=S)Nc1ccccc1N1CCCCC1)c1ccccc1	-14	-9%	nt	23%	2.4	2%	2.2%
Cc1c([N+](=O)[O-])cc(S(=O)(=O)Nc2ccncc2)cc1[N+](=O)[O-]	2	7%	5	15%	-1.6	-6%	1.0%
CCN(CC)C(=O)c1nn(Cc2ccccc2)c(=O)c2ccccc12	-41	-7%	2	15%	nt	23%	0.1%
COc1ccc(/C=N/n2c(N)c(S(=O)(=O)c3cccs3)c3nc4ccccc4nc32)cc1OC	-3	2%	?	18%	0.9	-5%	13µM*
O=C(O)c1nn(-c2ccccc2)nc1-c1nn(-c2ccccc2)nc1C(=O)O	10	8%	1	8%	1.5	-25%	25µM*
CSc1ccccc1NC(=O)CN(Cc1ccccc1)S(C)(=O)=O	-20	0%	-1	16%	-0.1	0%	-0.6%
COc1ccc(-c2oc3ccc(-c4cc(OC)c(OC)c(OC)c4)cc3c2-c2ccc(OC)cc2)cc1	nt	6%	1	nt	nt	-20%	4.3%
Cc1ccc(CNC(=O)COC(=O)CCCOc2ccc(Cl)cc2Cl)cc1	-2	-1%	nt	1%	5.4	-44%[inhibitor]	3.2%
COCCNC(=S)NCCc1ccc(Cl)cc1Cl	-6	-10%	6	11%	0.2	-2%	1.9%
O=C(Nc1ccccc1C(=O)Nc1nnc(C(F)(F)F)s1)c1ccccc1Cl	0	32µM*	-4	12%	0.7	-11%[15.4 µM]	nt
C=CCSC1=C(C#N)C(c2ccccc2OC)CC(=O)N1 (configuration not stated)	-1	0%	3	56µM*	0.7	4%	-3.6%
COc1ccccc1/C=N/NC(=S)Nc1cccnc1	8	-6%	-1	10%	3.7	12%[15.4 µM]	nt
COc1ccc(NC(=O)CC(C)CC(=O)NCc2ccc(F)cc2)c(OC)c1 (configuration not stated)	2	1%	6	-5%	-4.5	-2%	1.0%
c1ccc(CSc2nncn2-c2ccccn2)cc1	-2	8%	7	3%	2.4	34%	0.0%

The list goes on.
SMILES	TRPV1 PAM	gsp antagonist	CtBP-E1A blk	Sfp PPTase inh	Menin MLL FP FL	gsp agonist	ClpP mod
COc1ccc2[nH]c(=O)c(CN(C(C)=O)C3CCCCC3)cc2c1	10	-7%	-1	11%	-0.8	-4%	32µM*
CCCCC1=CC2=C(c3ccco3)C(=O)C(C)(OC(=O)c3ccc(OC)cc3)C(=O)C2=CN1c1ccc(OC)cc1 (configuration not stated)	7	-1%	-25	-16%&6%	-2.6[11.7 µM]	nt	1.0%
CC(=O)N1CCc2cc(C(=O)CN3CCN(C(=O)c4ccco4)CC3)ccc21	nt	-4%	4	18µM*	2.4	3%	-9.2%
COCCCNc1oc(-c2ccccc2F)nc1C#N	-22	-13%	-1	5%	-3.1	6%	4.2%
CC(=O)NC(c1ccc(C)cc1)c1cc(Cl)c2cccnc2c1O (configuration not stated)	2	-2%	-74*	11%	2.2	-38%[inhibitor]	nt
Cc1cccc(NC(=O)Cn2c(=O)oc3ccccc32)n1	9	-5%	7	7%	nt	-27%	0.5%
Cc1cccc(N2CN(Cc3cccnc3)CNC2=S)c1	-4	10%	-14	6%	-1.2	1%[15.4 µM]	-2.5%
CN(NC(=O)CN1C(=O)c2ccccc2C1=O)C1=NS(=O)(=O)c2ccccc21	1	5%	-2	6%	1.1	-48%[inhibitor]	nt
COC(=O)CCC(=O)Nc1ccc(NC(C)=O)cc1	5	11%	-1	7%	-3.7	-36%[inhibitor]	-4.3%
O=C(NCc1ccco1)C1CCC(CNS(=O)(=O)c2cccc3cccnc23)CC1 (configuration not stated)	-6	-1%	0	16%	3.4	-54%[inhibitor]	1.8%
COc1ccc(CCNC(=O)c2noc3c2CCCC3)cc1OC	?	-9%	6	16%	1.9	?	0.8%
CN(C(=O)c1ccccc1C(=O)OCC(=O)NC(=O)NC(C)(C)C)C1CCCCC1	0	7%	9	9%	1.1	25%[15.4 µM]	nt
N#C/C(C(=O)N1CCOCC1)=C1\Nc2ccccc2S1	?	-26%	5	11%	2.9	0%	0.1%
COc1ccc(N(CC(=O)Nc2cccnc2)S(=O)(=O)c2ccccc2)cc1Cl	-9	2%	3	1%	-3.6	1%[15.4 µM]	nt
COc1cc(/C=C2\CCC(C)C3=C(c4cc(OC)c(OC)c(OC)c4)C(C#N)=C(N)OC32)cc(OC)c1OC (configuration not stated)	nt	-3%	3	nt	nt	1%	-11%
C/C(N)=C(/C#N)C(=O)CSc1cc(C)c2ccccc2n1	-5	3%	nt	15%	0.8	20%	-4.3%
CCn1c(C)nc2cc(C(=O)N/N=C/c3ccc(OC)cc3)ccc21	?	-3%	0	25%	-0.7	1%[15.4 µM]	nt
Cc1cnc(CN(C)C(=O)c2ccc3oc(Cc4ccccc4)nc3c2)[nH]1	0	9%	-15	6%	nt	-15%[15.4 µM]	-2.7%
C=CCC1NS(=O)(=O)OC2CCCC12 (configuration not stated)	-8	13%	-11	10%	-0.2	nt	-1.8%
Cc1nn(C(C)C(=O)N2CCOCC2)c(C)c1[N+](=O)[O-] (configuration not stated)	-19	-9%	0	-11%	1.3	-6%[15.4 µM]	-1.8%
COc1ccc(NC(=O)CCC(=O)Nc2nnc(C(C)C)s2)cc1Cl	1	9%	-1	-13%	-8.0	6%	-1.3%
O=C(Nc1nc(-c2ccc3c(c2)Cc2ccccc2-3)cs1)c1ccccc1	-7	7%	16	?	2.5	13%	111%
Oc1ccc2ccccc2c1C=Nc1ccc(N2CCOCC2)cc1	1	-27%	-5	-26%	?	?	2.4%
CC(C)(Oc1ccc(Br)cc1Cl)C(=O)Nc1ccon1	6	-4%	3	8%	nt	0%	1.3%
Cc1ccc(C2CC(c3cccs3)=NN2C(=O)CSc2nc(=O)n3cc(C)ccc3n2)cc1 (configuration not stated)	2	13%	-2	nt	nt	7%[15.4 µM]	-4.8%

(list continues)
SMILES	TRPV1 PAM	gsp antagonist	CtBP-E1A blk	Sfp PPTase inh	Menin MLL FP FL	gsp agonist	ClpP mod
O=C(NCc1ccccc1)c1cnsn1	-10	5%	45	-1%	5.0	-31%	1.6%
COc1ccc(-c2cc(=O)[nH]c(N3CCN(Cc4ccccc4)CC3)n2)cc1	-8	4%	-11	8%	7.9	-6%[15.4 µM]	-2.5%
c1ccc(Nc2nc(N3CCNCC3)nc(N3CCOCC3)n2)cc1	-8	17%	-15	-3%	-2.3	7%	-2.3%
O=C(COC(=O)C1CCN(/C=C/C(=O)C(F)(F)F)CC1)Nc1ccccc1	-21	-4%	1	11%	-1.6	-23%	-5.1%
N#C/C(=C(/O)c1ccc(Cl)c([N+](=O)[O-])c1)c1nc2ccccc2[nH]1	nt	-11%	-20	-5%	3.1	-31%[inhibitor]	-3.5%
COc1ccc(C=C2CCC3C(CCCC34OCCO4)C2=O)cc1 (configuration not stated)	nt	nt	0	nt	nt	?	-1.8%
O=C(/C=C/c1cccc(C(F)(F)F)c1)OCC(=O)N1CCN(c2ccccc2)CC1	nt	2%	-6	nt	nt	-5%[15.4 µM]	-0.8%
O=C(COC(=O)/C=C/c1cccs1)Nc1cccc(S(=O)(=O)N2CCCC2)c1	0	-9%	-19	23%	1.9	-12%[15.4 µM]	nt
CCN(Cc1ccccc1)C(=O)Cc1ccc(OC)c(S(=O)(=O)N2CCOCC2)c1	10	2%	0	nt	nt	-6%[15.4 µM]	0.7%
COc1ccc(N2CCN(C(=O)CN(C)S(=O)(=O)c3cc(C)ccc3OC)CC2)cc1	15	0%	6	4%	2.3	-19%	nt
CCc1oc2ccccc2c1C(=O)CCN1CCCCC1	9	-3%	-3	?	1.3	-65%[inhibitor]	-7.3%
COC(=O)c1cc(C)[nH]c2c(C)cc3nc4ccccc4c3c12	-14	-16%	10	7%	5.5	?	-7.1%
N#C/C(=C/c1ccc(-c2ccccc2[N+](=O)[O-])o1)C(N)=O	-4	2%	-18	2%	2.8	4%	-1.6%
c1ccc(CCCN2CCN(c3ccccn3)CC2)cc1	2	3%	-6	-19%	7.5	24%	-3.7%
OCC[C@@H]1C[C@@H](O)[C@H](O)[C@@]2(Cc3ccccc3CO2)O1	15	9%	5	16%	-0.1	-8%	-0.2%

Screening data: PubChem, National Center for Advancing Translational Sciences (NCATS)
